Sfp PPTase inh = qHTS Assay for Inhibitors of Bacillus subtilis Sfp phosphopantetheinyl transferase (PPTase); 4'-phosphopantetheinyl transferase ffp (Bacillus subtilis), Q9F4F7; Biochemical Sfp PPTase activity, qHTS; Potency, µM, inactives show max response, negative = inhibition, most hits filed as inhibitors; actives 3.5% (n = 310,000); active means well fitted inhibition curve with a large enough effect; inconclusive means small, poorly fitted or top-dose-only effect, or another doubt; inactive means no such curve, though single readings can be large or run the other way;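 further: the enzyme is Sfp with the accession as filed and its product quenches rhodamine fluorescence; potency means the concentration at half of the fitted maximal effect; 0% = enzyme reaction without inhibitor and -100% = no enzyme wells; top concentration of the series not given in the record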
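Reaction rates are the 30-min fluorescence difference (ex 525, em 598 nm) in wells containing 15 nM Sfp, 5 uM rhodamine-CoA and 12.5 uM BHQ-2-YbbR at pH 7.6 with 10 mM MgCl2.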
gsp antag = qHTS for Antagonists of gsp, the Etiologic Mutation Responsible for Fibrous Dysplasia/McCune-Albright Syndrome: qHTS; gsp-mutant cells, cAMP HTRF, 30 min; control for the full effect not named in the record; Potency, µM (doses to about 76.9 µM), for inactives: at the top dose activity change, negative = inhibition, hits mostly inhibitors; actives 0.4% (n = 340,000); active = falling curve of any shape with a large fitted effect; inconclusive = falling curve, mostly with a smaller effect; inactive = flat or rising curve; cell line not stated here;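 further: intracellular cAMP measured with PDE inhibitor Ro 20-1724 present during compound exposure; potency means the concentration at half of the fitted maximal effect; on the % scale 0 is the no-effect control and ±100 the full control effect; nearly all actives have a fitted effect of over 65% in size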
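HTRF cAMP measurement after 30 min RT detection following 30 min, 37C compound treatment alongside […] (added as 300 uM solution) in G418-selected cells seeded at 2000/well and grown 16–24 h.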
Menin-MLL FL inh = qHTS Assay for Inhibitors Targeting the Menin-MLL Interaction in MLL Related Leukemias: Competition With Fluorescein Labeled MLL-derived Peptide; Fluorescence polarization, fluorescein-MLL peptide displacement from menin; FP activity change, % at 61.4 µM; 290,000 tested, under 10 active; AID 1766, 2009; inconclusive = falling polarisation curve, or a change in total fluorescence; inactive = total fluorescence flat and polarisation flat or rising; no compound was filed as active; the % refers to the polarisation; negative = inhibition;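 further: % of control where 0% means no effect; inhibitors lower the polarisation; unlabelled MLL peptide was the positive control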
TRPV1 potentiator = HTS Assay for Compounds that Act as Potentiators of the Vanilloid Receptor 1 | Transient receptor potential cation channel subfamily V member 1 (Homo sapiens), Q8NER1 | TRPV1-expressing cells, Fluo-8 calcium influx, capsaicin EC20 potentiation; host cell line not named in the record; control for the full effect not named in the record | potentiation, % at 8.33 µM | actives 0.02% (n = 320,000); active means potentiation above 80%; inconclusive means 30% to 80%; inactive means below 30%; further: 0% is about no effect
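TRPV1-expressing cells were cultured overnight at 35.5C and loaded with Fluo-8 calcium dye for 40 to 90 min at room temperature. After a 10 s baseline, compound was added and calcium influx was read kinetically for 3 min (ex 480/em 520 nm).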
gsp agonist = qHTS for Agonist of gsp, the Etiologic Mutation Responsible for Fibrous Dysplasia/McCune-Albright Syndrome: qHTS | gsp mutant cells, cAMP HTRF, 30 min; control for the full effect not named in the record | Potency, µM (highest dose often 76.9 µM), for inactives: at the top dose activation (cAMP increase), most hits filed as activators | actives 0.13% (n = 340,000); active = well fitted activation curve with a large enough effect; inconclusive = small, poorly fitted or top-dose-only effect, or another doubt; inactive = no such curve, though single readings can be large or run the other way; cell line not stated here;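 further: phosphodiesterase inhibitor Ro 20-1724 added with compounds to block cAMP breakdown; potency means the concentration at half of the fitted maximal effect; nearly all actives have a fitted effect of over 60% in size; about a fifth of the inactives were tested at one dose only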
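Cells stably selected in G418 were plated at 2000/well, grown 16-24 hr, then given compounds in DMSO with the PDE inhibitor […] (300 uM solution added) for 30 min at 37C; cAMP was read by HTRF.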
TRPML1 blocker = qHTS for Inhibitors of the Human Mucolipin Transient Receptor Potential 1 (TRPML1). activity change, negative = inhibition, % (test concentration not listed). Mucolipin-1 (Homo sapiens), Q9GZU1. actives 0.02% (n = 390,000). AID 624415, 2012. TRPML1-inducible cells, Ca2+ dye fluorescence, FDSS; hits give low values; inhibition of EC80 agonist-evoked calcium signal; in the data active means activity change below about -50%; inconclusive means about -30% to -50%; inactive means above about -30%;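 further: stimulus is agonist 54-4 at its EC80 concentration; on the % scale 0 is the no-effect control and ±100 the full control effect; compound concentration not given in the record; the text of the record puts the active cut at -80%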
Target sequence (Q9GZU1 whole entry, looked up): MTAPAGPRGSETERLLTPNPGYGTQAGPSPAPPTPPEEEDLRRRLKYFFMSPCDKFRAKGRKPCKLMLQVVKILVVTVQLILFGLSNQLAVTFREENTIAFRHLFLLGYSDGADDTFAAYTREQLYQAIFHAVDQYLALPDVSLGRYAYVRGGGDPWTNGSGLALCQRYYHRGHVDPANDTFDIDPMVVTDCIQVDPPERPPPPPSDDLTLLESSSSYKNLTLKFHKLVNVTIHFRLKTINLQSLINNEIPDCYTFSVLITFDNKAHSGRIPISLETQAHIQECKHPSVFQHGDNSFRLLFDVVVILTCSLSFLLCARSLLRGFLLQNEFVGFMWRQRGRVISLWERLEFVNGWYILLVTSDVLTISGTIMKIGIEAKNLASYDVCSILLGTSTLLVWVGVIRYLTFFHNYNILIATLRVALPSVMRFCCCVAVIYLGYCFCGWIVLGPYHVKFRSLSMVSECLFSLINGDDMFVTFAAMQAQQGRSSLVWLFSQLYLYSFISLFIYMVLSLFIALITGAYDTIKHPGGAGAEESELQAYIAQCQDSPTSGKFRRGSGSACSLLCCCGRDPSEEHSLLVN
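Calcium fluorescence in TRPML1-DL cells induced overnight with Tet: a 110 s read after compound pin addition, then a 110 s antagonist read after challenge with 54-4 at 4 uM final (EC80).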
ClpP mod = qHTS Assay for Activators of ClpP. ATP-dependent Clp protease proteolytic subunit (Bacillus subtilis (strain 168)), P80244. purified B. subtilis ClpP, FRET peptide cleavage, 20 min. Potency, µM (doses to about 57.5 µM), for inactives: at the top dose activity change, negative = active. actives 1.9% (n = 340,000); active = well fitted falling curve with a large enough effect; inconclusive = small, poorly fitted or top-dose-only effect; inactive = no such curve, though single readings can be large or run the other way; further: potency means the concentration at half of the fitted maximal effect; the source files actives as falling curves though it sought activators and does not explain the sign; nearly all actives have a fitted effect of over 65% in size; many hits overshoot -100%
Target sequence (P80244 whole entry, looked up): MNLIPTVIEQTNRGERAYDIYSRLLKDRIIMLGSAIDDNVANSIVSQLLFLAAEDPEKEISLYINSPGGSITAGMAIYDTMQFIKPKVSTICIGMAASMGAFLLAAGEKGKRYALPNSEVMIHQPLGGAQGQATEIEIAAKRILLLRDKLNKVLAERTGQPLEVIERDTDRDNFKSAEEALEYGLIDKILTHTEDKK
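Buffer: 100 mM Tris/HCl pH8, 100 mM KCl, 0.05% low protease BSA, 2.5% glycerol, 0.01% Tween-20. ClpP 10 microg/mL final; 20 min RT; delta FRET normalized to ADEP and DMSO controls.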
* hit, by the source's call; u = inconclusive; x = not tested or not shown; & = joins results of further samples; [ ] = another dose, or the depositor's remark.

Molecule,Sfp PPTase inh,gsp antag,Menin-MLL FL inh,TRPV1 potentiator,gsp agonist,TRPML1 blocker,ClpP mod
O=C1c2ccccc2C(=O)N1CCCC(=O)N1CCc2ccccc21,11.7%,-13.6%,-0.9,-8.9,-35.1%[inhibitor],-7.6,-1.3%
CNC(=O)CCc1ccc(OC)cc1,14.9%,9.7%,-0.3,0.3,-9.7%,4.7,1.3%
COc1cccc(CNC(=O)CCNC(=O)c2ccco2)c1,x,-14.8%,x,-5.5,-11.4%,-0.7,-1.4%
O=C(O)c1c[nH]n2c(=S)ncnc12,x,x,x,x,13.4%,-2.6,-1.5%
COc1ccc(C(=O)Nc2nnc(C(F)(F)F)s2)cc1,7.0%,-14.0%,3.2,-6.1,20.0%,-22.3,-1.3%
Cc1cc(C(=O)NCc2cccs2)cs1,-11.2%,12.7%,0.1,2.7,-60.7%[inhibitor],-19.0,188.9%
CCCC(c1nnnn1C(C)(C)CC)N(Cc1ccco1)Cc1cc2ccc(OC)cc2[nH]c1=O (centres undefined),-7.9%,u,3.3,-27.4,-28.9%,13.8,-10.0%
COCCNC(=O)CSc1n[nH]c(=O)n1CCc1ccccc1,1.2%,13.0%,4.3,24.3,11.7%,x,-2.5%
COCCN=C1N[C@@H](c2cccc(C(F)(F)F)c2)C(C(=O)OC)=C(C)N1Cc1ccccc1,-7.7%,9.4%,-2.3,10.2,x,16.6,-2.0%
O=C(Nc1ccc(F)cc1)C1CC(=O)n2cnnc2N1 (centres undefined),13.2%,0.9%,3.4,9.7,-2.6%,-5.6,x
CCSc1ccc(C(=O)NCC(=O)O)cc1,1.9%,7.2%,-1.5,1.9,-2.1%,3.9,x
CC1CCN(C(=O)CSc2nnc(CNC(=O)c3ccc(F)cc3)o2)CC1,22.4%,10.8%,x,7.2,28.3%,-4.8,-2.6%
O=C(COC(=O)Cc1cccs1)Nc1ccc(OC(F)(F)F)cc1,x,5.7%,x,-14.2,-69.6%[inhibitor],1.9,-28.3%
O=C(Nc1cccn2ncnc12)c1ccc(Cl)cc1,7.6%,4.5%,0.5,6.5,-27.2%,-4.8,1.8%
CCCC(=O)N1CCC(O)(c2cccc(F)c2)CC1,25.7%,-3.3%,-0.9,-20.3,5.3%[15.4 µM],11.1,x
COC(=O)c1ccc(N2CCN(C(=O)C3CC3)CC2)c([N+](=O)[O-])c1,4.7%,-12.6%,-2.4,12.0,12.4%,-4.3,x
COc1ccc(NC(=O)c2cccc(S(=O)(=O)N3CCc4ccccc43)c2)cn1,3.1%,-2.6%,u,1.2,-7.7%[15.4 µM],3.0,x
O=[N+]([O-])c1cc(Cl)cc(/C=N/NC(=S)Nc2cc(S(=O)(=O)N3CCOCC3)ccc2Cl)c1O,56.2µM*,50.1µM*,14.9,27.3,u,x,0.1%
O=C1COc2ccc(C(=O)COC(=O)CCOc3ccccc3)cc2N1,x,4.7%,x,x,4.6%,9.2,-4.2%
COc1ccc(/C=c2\s/c(=C\C(=O)C(C)(C)C)[nH]c2=O)cc1O,-10.3%,-2.7%,11.3,11.3,-30.7%[inhibitor],2.7,1.2%
O/N=C/c1ccnc(SCc2ccccc2)n1,7.6%,-8.4%,0.7,x,-1.7%[15.4 µM],2.8,0.7%
CN(C)/C=C(/C#N)C(=O)c1cccc(Oc2ccc(C(C)(C)C)cc2)c1,16.3%,-20.7%,0.7,6.1,-18.8%,-8.4,-0.5%
CN(C(=O)Nc1ccccc1)C1CCS(=O)(=O)C1 (centres undefined),8.3%,-1.0%,-0.4,11.4,-21.5%,9.5,0.8%
Cc1ccc(NC(=O)c2nnn(-c3cc(C)cc(C)c3)c2N)cc1,5.7%,8.9%,1.6,8.1,-55.7%,20.2,-1.6%
O=C(COC(=O)C1CCN(c2ccc(C(F)(F)F)cn2)CC1)NCc1cccc(Cl)c1,x,-9.8%,x,-33.4,14.8%[15.4 µM],0.1,1.4%
Cc1ccc2c(Cl)cc(Cl)c(OCC(=O)NC(=O)NCc3ccco3)c2n1,-15.1%,-1.0%,-1.0,-0.4,17.3%,6.9,u
CCC(=O)N1CCN(c2ccccc2NC(=O)c2ccc(-c3cccc([N+](=O)[O-])c3)o2)CC1,u,5.62µM*,0.8,-7.1,-0.6%[15.4 µM],27.9,x
Cc1ccccc1CSc1nnc(-c2cccs2)n1Cc1ccco1,-12.3%,-19.0%,0.3,-6.6,-19.4%,-1.3,-3.1%
COCCN(Cc1cn(C)nc1-c1ccccc1F)C(C)C,14.8%,5.4%,-1.8,4.8,7.6%,u,x
CN1CCN(NC(=S)NC(C)(C)CC(C)(C)C)CC1,3.4%,11.8%,-4.2,-2.1,-1.3%[15.4 µM],-4.7,-0.4%
COc1cc(C(=O)Nc2cc(Cl)ccc2-n2cncn2)ccc1OC(F)F,x,5.2%,x,-0.5,12.6%[15.4 µM],16.3,x
O=C(NCc1ccccc1)c1cccc(COc2ccc(Cl)cc2)c1,10.3%,-23.9%,5.0,4.4,15.2%,-4.5,-3.8%
C[C@H]1CCC(=O)N([C@H](CN=[N+]=[N-])Cc2ccccc2)CC1,14.3%,7.4%,-4.9,-20.4,x,-2.5,-0.3%&0.4%
N#C/C(=C\c1cc([N+](=O)[O-])ccc1Cl)C(N)=O,9.9%,3.6%,0.3,3.9,1.7%[15.4 µM],-19.1,x
COc1ccc(CNc2ncc(-c3ccc(Br)cc3)n2C)cc1OC,-18.3%,6.7%,-4.3,4.6,20.0%,-7.5,0.6%
N#Cc1cnc(SCC(=O)c2ccccc2)nc1N,u,-18.7%,3.1,-2.6,-19.4%,29.3,-5.5%
O=C(COC(=O)c1cc(=O)c2ccccc2o1)Nc1cc(Cl)ccc1Cl,x,18.9%,x,-2.6,-15.6%,1.8,0.9%
CN1CCc2nc3ccccc3c(C(=O)OCC(=O)N(CCC#N)c3ccccc3)c2C1,-8.8%,-8.9%,u,-0.2,5.1%,-6.0,-21.1%
COC(=O)[C@H](Cc1c[nH]c2ccccc12)NC(=O)NCc1ccccc1,0.8%,-2.9%,-9.0,1.9,17.5%,2.5,x
Fc1cc2ncn(Cc3ccccc3)c2cc1F,12.5%,2.6%,0.6,2.2,32.7%,-10.4,-1.2%
CC1=NN(CCc2ccccn2)C(=O)CC1,x,10.1%,x,x,-8.6%[15.4 µM],-10.0,0.2%
OCCN(CCO)c1ncnc2c1sc1nc(N3CCOCC3)c3c(c12)CCCC3,-17.7%,5.7%,22.9,-7.6,1.9%,8.3,u
O=S(=O)(CCN(CCS(=O)(=O)C(F)(F)F)CC1CCCO1)C(F)(F)F (centres undefined),5.0%,-0.4%,-0.3,-7.0,-37.0%[inhibitor],-3.8,-0.3%
CC(OC(=O)c1ccc(O)cc1)C(=O)Nc1nc(-c2ccccc2)cs1 (centres undefined),x,u,x,-6.7,-24.1%,15.3,-1.8%
Cc1nc2scc(C)n2c(=O)c1S(=O)(=O)N1CCN(c2ccc([N+](=O)[O-])cc2)CC1,-4.8%,8.1%,7.2,8.2,u,10.7,-1.8%
CCOc1ccccc1NC(=O)C(OC(=O)c1ccc(NC(=O)CC#N)cc1)c1ccccc1 (centres undefined),x,-3.8%,x,26.8,-16.5%[15.4 µM],-6.4,x
CC(NCCN(C)C)C(=O)C12CC3CC(CC(C3)C1)C2 (centres undefined),-11.1%,8.7%,-1.1,8.1,14.6%,40.2,2.6%
Cc1ccc(-c2csc3ncnc(N4CCN(C(=O)c5ccccc5)CC4)c23)cc1,u,-29.2%,0.8,-20.8,-3.3%,31.9,0.0%
CCOC(=O)c1cn(CC)c2cc(N3CCSCC3)c(F)cc2c1=O,5.3%,-5.8%,-2.4,-10.5,u,-9.9,u
O=C(N/N=C/c1ccoc1)c1ccc(Cl)cc1Cl,5.4%,8.4%,-0.1,-14.5,-12.2%,11.8,-2.2%
Cn1cc(CCC(=O)NCc2ccc3c(c2)OCO3)c2ccccc21,-18.2%,-1.5%,4.8,0.0,-19.3%,-14.0,-16.0%
C=CCc1ccc(OCCOc2ccc(/C=N/n3cnnc3)cc2OCC)c(OC)c1,-5.8%,-13.7%,4.0,0.6,u,4.0,-3.0%
CC1=C(O)C(=O)C(c2c(C)cc(C)c(Br)c2C)=C(O)C1=O,x,x,x,x,u,-0.7,0.7%
COc1cc(/C=C2/NC(=O)NC2=O)ccc1OCC(=O)Nc1ccc(F)cc1,9.8%,9.4%,x,-3.4,-13.9%,1.4,10.8%
C(=C\c1ccccc1)/C=N/Nc1ccc2nncn2n1,-2.0%,-6.8%,3.4,-6.1,0.4%,-26.5,-0.4%
O=c1c2c(-c3ccccc3)csc2ncn1/N=C/c1ccc(O)c([N+](=O)[O-])c1,18.2%,u,-1.5,-0.4,u,-0.1,0.1%
CCCCc1nnc(SCC(=O)NC2CCCCC2)n1C,12.0%,2.5%,2.3,-14.4,-14.5%,-23.1,-1.0%
COc1cccc(/C=N/NC(=O)CCc2c(C)n[nH]c2C)c1O,16.7%,-3.1%,1.5,-9.0,-44.5%[inhibitor],-14.1,-3.3%
COc1ccc(CNC(=O)C(c2ccncc2)N(C(=O)Cc2cccs2)c2ccccc2C)cc1 (centres undefined),10.2%,-12.3%,2.6,14.0,-30.3%,-3.7,-0.4%
COc1ccc([C@H]2C[C@@H](O)[C@H](n3cc(C4CC4)nn3)CN2C(=O)c2cccs2)cc1,x,x,x,x,-22.5%,-4.9,1.8%
COc1cccc(-n2c(SCC(=O)Nc3nccs3)nnc2-c2ccoc2C)c1,4.5%,1.5%,2.6,6.8,4.5%,24.9,0.6%

Random draw from the library. About 4.9% of those tested had a hit in this group.
